# Source: PubChem BioAssay (ICCB-Longwood Screening Facility, Harvard Medical School)
# GIV-Gai inh = inhibitors of GIV peptide binding to Galpha-i3, primary screen, biochemical, fluorescence polarization, FITC-GIV GBA peptide, rat Galphai3 | AID 1224905, 2016 | percent of control (FP), % (test concentration not listed) | Guanine nucleotide-binding protein G(i) subunit alpha-3 (Rattus norvegicus), P08753 | 90 min; stronger effect = lower value; scaled: aluminum fluoride 0%, vehicle 100% | 210,000 compounds, 0.42% hits;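 active = replicate mean at 85% of control or lower, very high polarization wells dropped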;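 note: wells of about 15 µL received 100 nL stock; the first replicate is given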
# Target sequence (P08753 whole entry, looked up): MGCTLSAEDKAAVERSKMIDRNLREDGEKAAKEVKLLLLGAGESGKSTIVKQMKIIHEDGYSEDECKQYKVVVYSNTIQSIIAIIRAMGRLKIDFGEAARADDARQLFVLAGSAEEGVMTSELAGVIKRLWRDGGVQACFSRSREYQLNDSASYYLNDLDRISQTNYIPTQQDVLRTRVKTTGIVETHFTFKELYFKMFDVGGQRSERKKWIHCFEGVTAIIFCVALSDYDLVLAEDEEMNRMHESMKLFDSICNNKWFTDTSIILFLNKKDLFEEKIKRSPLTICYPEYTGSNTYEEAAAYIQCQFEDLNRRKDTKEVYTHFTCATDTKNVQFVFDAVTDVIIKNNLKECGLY
# HCMV NEC inh = inhibitors of HCMV UL50-UL53 interaction, biochemical, HTRF | normalized percent inhibition | inhibition, % (test concentration not listed) | 190,000 compounds, 0.15% hits | AID 1918969, 2023;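 active = both replicates at 50% or more, plus weaker picks with an unusually low signal ratio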;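 note: stock transfer was 100 nL into about 20 µL; 0% = negative control wells and 100% = wells with untagged competitor protein; inactives centre near -12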
# Sa growth 42C = S. aureus growth inhibition at 42 and 30 °C, primary screen, LtaS inhibitor project, RN4220, two temperatures; relative growth, % (concentration not given with the values); OD600, 20 h, 42 °C; stronger effect = lower value; AID 720641, 2013; 170,000 compounds, 0.53% hits;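 active = growth at 42 °C up to 50% and 20 or more points under that at 30 °C, or under 10% at both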;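 note: 300 nL library stock went into each well; scaled to the means of positive and negative controls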
# Sa growth 42C second temp = also measured in Sa growth 42C; calls as there; relative growth, %; measured here: growth at 30 °C;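 optical density after 20 h as mean of two plates; 100% = untreated growth and lower means inhibition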
# An asterisk follows results filed as active; . = no result given; & = joins results of further samples.
SMILES,GIV-Gai inh,HCMV NEC inh,Sa growth 42C,Sa growth 42C second temp
CC(Oc1c(Cl)cccc1Cl)C1=NCCN1 (centres undefined),97,1&-66&-14,97&87,87&87
O=C1CC(c2cc(F)cc(F)c2)Cc2nc(N3CCN(c4ccc(F)cc4)CC3)ncc21 (centres undefined),93,8,.,.
O=C(O)CN1C(=O)c2cccc3cccc(c23)C1=O,.,-126&-69&-116,96,90
CCOc1ccc(/C=C/c2nn3c(-c4cccnc4)nnc3s2)cc1,97,-32,.,.
Cc1onc(-c2ccccc2Cl)c1C(=O)N[C@@H]1C(=O)N2[C@@H]1SC(C)(C)[C@@H]2C(=O)O,.,-13&-19,0.0*,-1.0*
c1ccc2c(CC3=NCCN3)cccc2c1,100,-42&-16&20&-11&-23&-52,91&88&92,84&83&103
Cc1nn(CC(=O)NCCc2ccccc2)c(=O)c2c1sc1ccccc12,104,-9,115,73
CCN(CC)CCCCNc1ncc2cc(-c3c(Cl)cccc3Cl)c(NC(=O)NC(C)(C)C)nc2n1,106,0&10,.,.
Cc1oc(-c2cccc(Cl)c2)nc1Cn1c(SCc2ccccc2F)nc2ccncc21,102,8,103,86
CC(=O)n1nc(-c2ccccc2Cl)nc1N,102,-14,.,.
Cc1nc2c3ccccc3nc(NNC(=O)CCC(=O)N3CCN(c4ccccc4)CC3)n2n1,95,-6,99,92
CCOC(=O)c1ccc2nc(C(F)(F)F)nc(NCc3ccc(Cl)cc3)c2c1,103,.,98,75
CCC[C@H](N[C@@H](C)C(=O)N1[C@H](C(=O)O)C[C@@H]2CCCC[C@@H]21)C(=O)OCC,.,-28&-7,93,91
CNC(=O)c1ccc(CSc2nc3ccncc3n2Cc2ccc(C)cc2)cc1,103,-13,104,83
Cc1nnc(NS(=O)(=O)c2ccc(N)cc2)s1,.,-36&-7&-22,58,33
CC1CCCN(S(=O)(=O)c2cc(C(=O)NCCC3=CCCCC3)n(C)c2)C1 (centres undefined),111,-4,.,.
O=C1NC(=O)[C@@]2(CCOc3ccc(F)cc32)N1,100,-30,.,.
COc1cc2nc(N3CCN(C(=O)C4COc5ccccc5O4)CC3)nc(N)c2cc1OC (centres undefined),101&103&109,-35&-56&4&-10&-24&-34&-12,96&91&74,86&85&68
O=C1NCC2(CCN(CCc3ccccc3)CC2)O1,100,-41&-11&-22&-12,93,89
COc1nc(C)nc(Cl)c1NC1=NCCN1,102,4&-8&-53&-31&-18,92,88
C1=NC(Cc2cccc3ccccc23)NC1 (centres undefined),.,-4,88,112
NS(=O)(=O)c1cc2c(cc1C(F)(F)F)NC(Cc1ccccc1)NS2(=O)=O (centres undefined),.,-41&-22&-46,89,84
CC[C@]1(O)CC2CN(CCc3c([nH]c4ccccc34)[C@@](C(=O)OC)(c3cc4c(cc3OC)N(C)[C@H]3[C@@](O)(C(=O)OC)[C@H](OC(C)=O)[C@]5(CC)C=CCN6CC[C@]43[C@@H]65)C2)C1 (some centres undefined),104,-13&-36,97&95,87&86
CCCOc1ccccc1-c1nc2n[nH]nc2c(=O)[nH]1,101&94,-34&-3&-9&-8&62,90,73
N=C(N=C(N)N)N1CCOCC1,100,3&-12&3&-26,96,95
CC(=O)O[C@]1(C(C)=O)CC[C@H]2[C@@H]3C=C(Cl)C4=CC(=O)[C@@H]5C[C@@H]5[C@]4(C)[C@H]3CC[C@@]21C,107&105,-25&-25,99,86
COc1ccc(C(=O)Nc2nc3ccccc3n2CCOc2ccc(Cl)cc2)cc1,103,-8,85,78
CN(C)CCCN1c2ccccc2Sc2ccccc21,102,-42&-15&4,93,81
Cc1coc2c1C(=O)C(=O)c1c-2ccc2c1CCCC2(C)C,94,-39&-11&-9,91,71
COc1ccc(Cc2nnc3sc(-c4ccc(N(C)C)cc4)nn23)cc1,125,-27,.,.

# Filtered by structure, the entries above with a COOH group (3)
SMILES,GIV-Gai inh,HCMV NEC inh,Sa growth 42C,Sa growth 42C second temp
O=C(O)CN1C(=O)c2cccc3cccc(c23)C1=O,.,-126&-69&-116,96,90
Cc1onc(-c2ccccc2Cl)c1C(=O)N[C@@H]1C(=O)N2[C@@H]1SC(C)(C)[C@@H]2C(=O)O,.,-13&-19,0.0*,-1.0*
CCC[C@H](N[C@@H](C)C(=O)N1[C@H](C(=O)O)C[C@@H]2CCCC[C@@H]21)C(=O)OCC,.,-28&-7,93,91

# Grouped by structure: the entries above containing an aryl thioether with sulfur outside any ring
SMILES,GIV-Gai inh,HCMV NEC inh,Sa growth 42C,Sa growth 42C second temp
Cc1oc(-c2cccc(Cl)c2)nc1Cn1c(SCc2ccccc2F)nc2ccncc21,102,8,103,86
CNC(=O)c1ccc(CSc2nc3ccncc3n2Cc2ccc(C)cc2)cc1,103,-13,104,83

# Structures shown so far with an aryl methoxy group:
SMILES,GIV-Gai inh,HCMV NEC inh,Sa growth 42C,Sa growth 42C second temp
COc1cc2nc(N3CCN(C(=O)C4COc5ccccc5O4)CC3)nc(N)c2cc1OC (centres undefined),101&103&109,-35&-56&4&-10&-24&-34&-12,96&91&74,86&85&68
COc1nc(C)nc(Cl)c1NC1=NCCN1,102,4&-8&-53&-31&-18,92,88
CC[C@]1(O)CC2CN(CCc3c([nH]c4ccccc34)[C@@](C(=O)OC)(c3cc4c(cc3OC)N(C)[C@H]3[C@@](O)(C(=O)OC)[C@H](OC(C)=O)[C@]5(CC)C=CCN6CC[C@]43[C@@H]65)C2)C1 (some centres undefined),104,-13&-36,97&95,87&86
COc1ccc(C(=O)Nc2nc3ccccc3n2CCOc2ccc(Cl)cc2)cc1,103,-8,85,78
COc1ccc(Cc2nnc3sc(-c4ccc(N(C)C)cc4)nn23)cc1,125,-27,.,.

# Later entries:
SMILES,GIV-Gai inh,HCMV NEC inh,Sa growth 42C,Sa growth 42C second temp
COc1ccccc1OCC(O)COC(N)=O (centres undefined),.,-14&-8&-15&-40,92,85
O=C1N(c2ccccc2)c2ccccc2C1(Cc1ccncc1)Cc1ccncc1,98,11&-64&-3,85,78
O=C(OC1CC2CC3C[C@@H](C1)N2CC3=O)c1c[nH]c2ccccc12 (some centres undefined),101,-37,105,101
CCc1noc2nc(C)nc(N3CCCC(C(=O)NCCN4CCCC4)C3)c12 (centres undefined),102,0,.,.
COC(=O)c1cccnc1,.,3,96,93
c1ccc(Cc2nc(-c3ccncc3)n[nH]2)cc1,103,-5,103,110
CC(C)(C)C(=O)Nc1ncccn1,104,5,95,88
Cc1nc2c3ccccc3nc(NNC(=O)CCC(=O)N3CCN(c4cc(Cl)ccc4C)CC3)n2n1,95,-9,86,88
Cc1[nH]c(C(=O)N2CCCC(C(=O)N3CCN(c4ccccc4)CC3)C2)c(C)c1C(=O)OC(C)C (centres undefined),99,-2,.,.
COc1ccc(NC(=O)Cn2ccn(-c3ccc(C)c(C)c3)c(=O)c2=O)cc1Cl,101,-17,113,82

# Whole records from above:
# CCc1noc2nc(C)nc(N3CCCC(C(=O)NCCN4CCCC4)C3)c12 (centres undefined) is listed as GIV-Gai inh: 102; HCMV NEC inh: 0; Sa growth 42C: .; Sa growth 42C second temp: .
# O=C(OC1CC2CC3C[C@@H](C1)N2CC3=O)c1c[nH]c2ccccc12 (some centres undefined) is listed as GIV-Gai inh: 101; HCMV NEC inh: -37; Sa growth 42C: 105; Sa growth 42C second temp: 101

# Remaining list, next part
SMILES,GIV-Gai inh,HCMV NEC inh,Sa growth 42C,Sa growth 42C second temp
COc1ccc(C2CC(=O)C3=C(C2)NC(C)=C(C(=O)OCCc2ccccc2)C3c2ccncc2)cc1 (centres undefined),105,-18,.,.
O=C(Cn1ccnc1[N+](=O)[O-])NCCO,.,-85&-10,81,81
C=CCN1C(=O)C(CC(C)C)NC1=S (centres undefined),99,-22,89,88
Cc1nc2ccccn2c(=O)c1Cc1nnc(SCC(=O)NCc2nc3ccccc3[nH]2)n1C,113,-25,.,.
CN1CCC(=C2c3ccccc3CCc3sccc32)CC1,.,-40&-7&-42&-22,100&96,78&81
CN(C)C/C=C(/c1ccc(Br)cc1)c1cccnc1,100,-43&-10&-2,98,91
CCCCNC(=O)N1CCc2cc(OC)c(OC)cc2C1c1ccccc1 (centres undefined),.,-5,87,94
CCCCC1CCC(CCCC(C)CCC(=O)O)CC1 (centres undefined),99,0,112,105
CS(=O)(=O)c1ccc(-n2nc(C(F)(F)F)cc2-c2ccc(F)cc2)cc1,108,11,.,.

# A portion of the library; the hit share may differ from the screen's.
